Screens (PubChem BioAssay)
Sa growth 42C – blocks Staphylococcus aureus growth | S. aureus RN4220 growth, OD600, 20 h, 42 °C; stronger effect = lower value | relative growth, % (no concentration beside the values) | 0.53% of 170,000 active | AID 720641;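 active = growth at 42 °C up to 50% and 20 or more points under that at 30 °C, or under 10% at both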;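 also: 300 nL library stock went into each well; scaled to the means of positive and negative controls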
HCMV UL50-53 inh – disrupts HCMV UL50-UL53 complex binding. 0.15% of 190,000 active. inhibition, % (test concentration not listed). HTRF UL50-UL53 interaction, normalized percent inhibition;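 active = both replicates at 50% or more, plus weaker picks with an unusually low signal ratio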;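 also: stock transfer was 100 nL into about 20 µL; 0% = negative control wells and 100% = wells with untagged competitor protein; inactives centre near -12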
GIV-Gai inh – GIV-Galpha-i interaction inhibition; Galpha-i3/FITC-GIV peptide fluorescence polarization, 90 min; stronger effect = lower value; scaled: aluminum fluoride 0%, vehicle 100%; P08753; 0.42% of 210,000 active; percent of control (FP), % (test concentration not listed); AID 1224905;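 active = replicate mean at 85% of control or lower, very high polarization wells dropped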;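 also: wells of about 15 µL received 100 nL stock; the first replicate is given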
Target sequence (P08753 whole entry, looked up): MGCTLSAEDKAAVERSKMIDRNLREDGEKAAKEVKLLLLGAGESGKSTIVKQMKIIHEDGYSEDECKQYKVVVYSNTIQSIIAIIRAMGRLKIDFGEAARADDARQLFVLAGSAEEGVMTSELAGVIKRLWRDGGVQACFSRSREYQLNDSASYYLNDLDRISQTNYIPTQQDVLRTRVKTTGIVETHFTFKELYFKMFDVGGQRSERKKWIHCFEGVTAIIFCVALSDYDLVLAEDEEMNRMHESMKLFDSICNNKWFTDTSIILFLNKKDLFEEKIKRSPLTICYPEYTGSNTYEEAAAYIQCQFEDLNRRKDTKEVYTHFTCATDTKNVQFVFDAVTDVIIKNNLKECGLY
Sa growth 42C second temp – recorded beside Sa growth 42C, whose call it bears; relative growth, %; measured here: growth at 30 °C;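 optical density after 20 h as mean of two plates; 100% = untreated growth and lower means inhibition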
* marks the source's active call; other numbers are inactive results; . = no result given; & = joins results of further samples.

Structure	Sa growth 42C	Sa growth 42C second temp	HCMV UL50-53 inh	GIV-Gai inh
COc1ccc(C)cc1N(C)C(=O)Cc1c(C(=O)O)n(C)c2ccccc12	.	.	-7	106
COC(=O)c1c(NC(=O)c2c(OC)cccc2OC)sc2c1CCCC2	99	82	-61	105
COc1ccc(CCNC(=O)c2n[nH]nc2Nc2ccc(C)cc2)cc1OC	.	.	-10	104
CC1Oc2ccccc2OC1C(=O)NCc1ccccc1 (stereo unspecified)	.	.	-5	111
COc1ccccc1Nc1cccc2nonc12	112	100	-39	154
N#C/C(=C\c1ccccc1)C(=O)Nc1cccc2c1C(=O)NC2=O	91	91	-8	.
O=C(O)c1cccc(-n2cnc3ccccc3c2=O)c1	99	93	7	.
N#Cc1ccc(C(=O)OCC(=O)Nc2ccccc2C#N)cc1	70	74	-6	.
O=C(CCC1CC(=O)Nc2ccccc21)NCc1ccccc1 (stereo unspecified)	95	94	.	104
COc1cccc(CNc2nc3nc(C)cc(C)n3n2)c1	.	.	7	100
Cc1sc2ncn(CC(=O)N3CCN(c4ccccc4F)CC3)c(=O)c2c1S(=O)(=O)N1CCC(C)CC1	103	93	-20	103
CC1CCCCN1C(=O)CSc1nc(C2CC2)nc2ccccc12 (stereo unspecified)	101	64	-32	102
CCOc1ccc(S(=O)(=O)N(C(C)=O)c2ccc3oc(C)c(C(=O)OC)c3c2)cc1	101	102	7	104
CC(C)CSc1nnc2c3ccccc3n(C)c2n1	89	72	-52	105
CCSc1ccc(-c2noc(C(C)(C)C)n2)cn1	85	98	-5	102
Cc1ccc2c(c1)CCCN2C(=O)c1scc(S(=O)(=O)c2ccc(Cl)cc2)c1C	125	99	18	102
CCN(CC)c1ccc(NC(=O)CSC(=O)c2ccccc2)cc1	99	80	-30	.
CN(C)C(=O)CSc1ccccc1C(=O)O	81	93	16	.
NC(=O)c1sc(=S)n2c1[nH]c(=O)c1ccc(Cl)cc12	.	.	-14	97
CC1=C/C(=N\Nc2ccc(C(=O)O)cc2)CC1	62	70	-43	.
O=C(NCc1ccc2c(c1)OCO2)c1c[nH]c2ccc(S(=O)(=O)N3CCOCC3)cc2c1=O	108	88	-7	108
CC(C)NC(=O)CCCCn1c(=O)c2ccccc2n(CC(=O)NC2CCCCC2)c1=O	.	.	-2	103
CCn1c2ccccc2c2cc(C=Nc3cccc(C#N)c3)ccc21	132	100	0	.
CC1=C(c2ccc(C)c(C)c2)S(=O)(=O)N(CC(=O)N2CCN(Cc3ccccc3)CC2)C1=O	.	.	-50	100
O=[N+]([O-])c1ccc(N2N=C(c3ccccc3)CC2c2ccccc2O)cc1 (stereo unspecified)	.	.	-10	177
COc1ccc(-n2cc(C(=O)NC(C)CCc3ccco3)c3ccccc3c2=O)cc1 (stereo unspecified)	102	86	11	103
N#Cc1cc(C#N)c(SCC(=O)N(c2ccccc2)C2CCCCC2)nc1N	71	98	21	.
O=C(c1ccc(F)cc1F)N1CCC(c2nc(-c3ccc(S(=O)(=O)N4CCCC4)cc3)no2)CC1	106	84	-15&-10	105&100
CN(C)c1ccc(CNC(=O)Cc2ccc(NC(=O)N3CCCCc4ccccc43)cc2)cc1	105	90	.	100
CC1(C)CC(=O)C(CC2=C(O)CC(C)(C)CC2=O)=C(O)C1	88	89	1	.
Cc1[nH]nc(N)c1-c1ccccc1	99	51	-4	104
O=S1(=O)CCC(NCc2ccccc2)C1 (stereo unspecified)	94	100	9	107
CCOC(=O)c1c(NC(=O)/C=C/c2ccc(OC)cc2)sc2c1CCC(C)C2 (stereo unspecified)	109	99	-26	107
O=C(CN1C(=O)C(c2ccccc2)Oc2cccnc21)NC1CCCCC1 (stereo unspecified)	.	.	-171	101
O=C(NCc1ccc(Cl)cc1)c1n[nH]nc1Nc1cccc(F)c1	.	.	-24	106
COc1cc(C2NC(=O)NC(C)=C2C(=O)OCCOC(C)C)ccc1OCc1ccccc1 (stereo unspecified)	.	.	6	108
CC(=O)c1ccc(N2CCN(C(=O)c3cc4c(s3)-c3ccccc3OC4)CC2)cc1	100	88	-17	101
Cc1ccc(C(=O)Cn2nc3n(CC(C)C)c(=O)c4ccc(C(=O)NC(C)C)cc4n3c2=O)cc1	.	.	-15	102
O=C(CC1CCC1)Nc1ccc(Oc2ccccc2)cc1	100	98	-3	.
Cc1cc2nn(-c3ccc(F)cc3)nc2cc1NC(=O)c1cccc2c(Cl)cccc12	101	92	-54	106
CC1CCCCN1S(=O)(=O)c1ccc(Cl)cc1 (stereo unspecified)	96	88	-4	.
O=C1OC2(c3ccccc3)C3CCCC2C13	107	105	-4	108
CC1=C(C(=O)Nc2cccnc2)C(c2ccc(C)cc2)n2nc(SCc3ccccc3F)nc2N1 (stereo unspecified)	127	93	-7	101
N#Cc1sc2nc(-c3ccccc3)ccc2c1N	112	99	-28	107
CCCN(CCC)C(=O)Cn1c(SCc2ccc(F)cc2)nc2cccnc21	.	.	2	93
CCc1nc2cc(C)c(C)cc2nc1CC	97	88	-12	104
CCN(CC)c1ccc(NC(=O)c2cc(CN3CCCC3)on2)c(C)c1	105	89	.	103
CCOC(=O)NC1CCN(CC)CC1	105	108	2	104
O=C(CSc1n[nH]c(=O)n1C1CC1)NC1CCCC1	87	90	-20	.
Cc1ccccc1NC(=O)CSc1nc2ccc(NC(=O)c3ccco3)cc2s1	99	74	-15	104
CCCc1cc(=O)oc2cc(C)c3c(-c4cccc(OC)c4)coc3c12	109	88	-21	101
COc1ccc(CNC(=O)c2cc(Nc3ccccc3OC)nc3ccccc23)cc1	118	71	.	102
CCOC(=O)C1CCN(C(=O)COC(=O)c2ccc(N(C)C)cc2)CC1	103	84	-12	.
Cc1cc2nc(COC(=O)C(C)C)cc(=O)n2o1	96	81	-30	99
CCn1c(C)c(C2=CCN(S(=O)(=O)c3ccc(F)c(C)c3)CC2)c2ccccc21	.	.	-22	107
CCOC(=O)c1cn2nc(Oc3ccccc3)ccc2n1	99	80	-94	102
CCN1CCN(c2c(S(=O)(=O)c3ccccc3)cnc3ccc(Cl)cc23)CC1	75	87	-38	101
Cc1ccc2scc(CC(=O)O)c2c1	111	82	19	103
O=C(O)CSc1c2c(nc3cc(C(=O)Nc4ccc(F)c(Cl)c4)ccc13)CCCC2	113	90	.	106
Cc1nn(Cc2ccc(Cl)c(Cl)c2)c(C)c1NC(=O)c1noc2c1CCc1ccccc1-2	117	67	-5	102

Three entries out of the list above, ordered by the value under Sa growth 42C, high to low:
SMILES	Sa growth 42C	Sa growth 42C second temp	GIV-Gai inh
Cc1nn(Cc2ccc(Cl)c(Cl)c2)c(C)c1NC(=O)c1noc2c1CCc1ccccc1-2	117	67	102
CCOC(=O)c1cn2nc(Oc3ccccc3)ccc2n1	99	80	102
O=C(CSc1n[nH]c(=O)n1C1CC1)NC1CCCC1	87	90	.

The listing continues.
Structure	Sa growth 42C	Sa growth 42C second temp	HCMV UL50-53 inh	GIV-Gai inh
CNC(=O)COC(=O)c1c(-c2c(F)cccc2Cl)noc1C	85	81	-3	.
N#Cc1ccccc1CSCCNc1ncnc2c1oc1ccccc12	67	88	-29	.
Cc1ccc2c(c1)C(=O)OC(C(=O)Nc1ncc(Cc3ccccc3Cl)s1)C2 (stereo unspecified)	86	88	-33	96
Cc1ccc(NC(=O)c2ccc3snnc3c2)cc1Cl	114	91	-10	107
Cc1ccc2oc3c(c(=O)c2c1)C1(C(=O)N(C)c2ccccc21)N(CCCO)C3=O (stereo unspecified)	91	86	-30	102
Clc1ccc(-n2ncc3c(NC4CCCC4)ncnc32)cc1	114	96	.	94&100
CCOc1ccc(NC(=O)c2ccc(NC(=O)CCS(=O)(=O)c3cccs3)cc2)cc1	100	89	-19	102
COc1cc(/C=C2\N=C(c3ccc(OC)c([N+](=O)[O-])c3)OC2=O)ccc1OC(C)=O	.	.	13	107
CCc1ccc(OCCCC(=O)Nc2ncn[nH]2)cc1	97	86	-23	.
O=C(O)CCSc1nc2ccccc2n1C1CCCCC1	92	83	.	102
C/C(=N\NC(=O)C1CC1)c1ccccc1O	69	80	-19	.
Cc1nn(C)c(C)c1CCNS(=O)(=O)c1ccc(Br)s1	.	.	-16	104
COc1cccc(-c2cc(C(=O)Nc3cccnc3Cl)no2)c1	101	90	7	102
O=c1[nH]c(CN2CCCC2)nc2c(Br)cc(Br)cc12	105	79	-2	.
O=C(/C=C/c1cn(-c2ccccc2)nc1-c1cccs1)NC1CCC(O)CC1 (stereo unspecified)	97	83	-42	.

Part of the list above, reduced to Sa growth 42C second temp, GIV-Gai inh and Sa growth 42C:
Molecule | Sa growth 42C second temp | GIV-Gai inh | Sa growth 42C
Cc1ccc2oc3c(c(=O)c2c1)C1(C(=O)N(C)c2ccccc21)N(CCCO)C3=O (stereo unspecified) | 86 | 102 | 91
Clc1ccc(-n2ncc3c(NC4CCCC4)ncnc32)cc1 | 96 | 94&100 | 114
CCOc1ccc(NC(=O)c2ccc(NC(=O)CCS(=O)(=O)c3cccs3)cc2)cc1 | 89 | 102 | 100
COc1cc(/C=C2\N=C(c3ccc(OC)c([N+](=O)[O-])c3)OC2=O)ccc1OC(C)=O | . | 107 | .
CCc1ccc(OCCCC(=O)Nc2ncn[nH]2)cc1 | 86 | . | 97
O=C(O)CCSc1nc2ccccc2n1C1CCCCC1 | 83 | 102 | 92
C/C(=N\NC(=O)C1CC1)c1ccccc1O | 80 | . | 69

(further entries)
Structure	Sa growth 42C	Sa growth 42C second temp	HCMV UL50-53 inh	GIV-Gai inh
CCC(=O)Nc1nc2c(C)cc(NC(=O)Nc3ccccc3CC)cc2s1	.	.	6	96
C=Cn1ccc(CCC)c1-c1cccs1	81	71	-13	168
CSc1nn2c(=O)c(C)nnc2s1	96	97	-20	108
Cc1ccc(S(=O)(=O)NCCc2csc(C)n2)cc1	95	85	.	100
Brc1cccc(C=NN2CCN(c3ccccn3)CC2)c1	97	86	5	101
NNC(=O)c1cc(-c2ccccc2)nc2ccccc12	102	106	-44	102
O=C(NCc1cccnc1)C1=CCN(S(=O)(=O)c2ccccc2)CC1	95	92	.	110
COC(=O)C(Cc1c[nH]c2ccccc12)NC(=O)COc1cccc(C)c1 (stereo unspecified)	110	94	11	105
Cc1cc(C)c(NCc2ccccc2O)c(C)c1	93	84	-24	96
O=C(CSc1ncn[nH]1)Nc1ccccc1	123	81	-3	.
CCn1c(C(=O)O)c(CC(=O)N(C)c2ccc(Br)cc2)c2ccccc21	.	.	-10	99
O=C(NC1CCCC1)C1CCN(c2cc(-c3ccccc3)ncn2)CC1	.	.	-31	106
S=C(c1cccs1)N1CCOCC1	113	99	-14	107
O=C(O)c1ccc(NC(=O)C2CC(=O)N(Cc3ccc4c(c3)OCO4)C(=Nc3ccc(Cl)cc3)S2)cc1 (stereo unspecified)	.	.	-32	99
CCCCN(CC)C(=O)Cn1nc(CC)n2c(cc3sccc32)c1=O	98	85	0	112
CCC(CO)N=Cc1c(O)n(-c2ccccc2F)c(=O)c2ccccc12 (stereo unspecified)	92	95	-25	.
CCc1ccc(NC(=O)c2ccc(CNS(=O)(=O)c3ccc4c(c3)C(C)(C)C(=O)N4C)cc2)cc1	125	87	.	102
CC(C)c1ccc(CNc2nc(-c3ccco3)nn2S(=O)(=O)c2ccc3ccccc3c2)cc1	77	91	0	113
Cc1ccccc1NC(=O)CSc1nnc(C)c(=O)[nH]1	113	96	-2	102
COc1ccc(/C=C2\Sc3ccc(C(=O)N4CCOCC4)cc3N(C)C2=O)cc1	111	57	-44	100
CCN1C(=O)/C(=c2\sc3n(c2=O)C(c2cccs2)C(C(=O)OC)=C(C)N=3)c2ccccc21 (stereo unspecified)	.	.	-21	108
CCCc1noc(-c2cc(S(=O)(=O)N3CCN(c4ccccc4)CC3)ccc2OC)n1	.	.	9	103
CC(=O)c1cccc(NC(=O)c2cccn2-c2nnc(N3CCCCC3)s2)c1	101	86	.	101
CCOc1ccccc1C1C2=C(CC(c3ccc(Cl)cc3)CC2=O)Nc2onc(C)c21 (stereo unspecified)	.	.	4	111
CCN1CCCC1CNC(=O)CSCc1cnn(-c2ccccc2)c1-n1cccc1 (stereo unspecified)	.	.	-1	110
Cn1cc(-c2nc(-c3ccccc3Cl)no2)c(=O)c2cc(F)c(N3CCCCC3)cc21	.	.	-28	102
CCN1CCc2c(sc(=NC(=O)c3ccc(F)cc3)n2C(=O)c2ccc(F)cc2)C1	103	86	-1	.
FC(F)(F)c1cc(-c2ccccc2)nc2cc(-c3ccc(Br)cc3)nn12	105	86	-30	104
CCOC(=O)c1cnn(-c2cc(C)nc3c(-c4ccc(Cl)cc4)c(C(F)(F)F)nn23)c1N	.	.	-22	104
CCOc1ccc(-c2c(C#N)c(N)nc(SCC(=O)OCc3ccccc3)c2C#N)cc1	.	.	-22	105
COc1ccc(OC)c(NC(=O)NCCc2c(C)nn(C)c2C)c1	.	.	-4	106
CCOC(=O)C1CCN(C(=O)C2Cc3ccccc3N2C(=O)OCc2ccccc2)CC1 (stereo unspecified)	94	93	-17	104
CCOc1ccc(N2C(=O)c3c(C(=O)OC)ncn3CC2(C)C(=O)NC2CCCC2)cc1 (stereo unspecified)	.	.	-5	100

Random draw from the library; any-hit rate near 0.83%.
